Screens (PubChem BioAssay)
PD-1 reversal: activators reversing PD-1 mediated T-cell inhibition, primary screen, luminescence, primary human CD4 T cells, PD-L1 beads; CellTiter-Glo 96 h; activation, % (test concentration not listed); 29,000 tested, under 10 active; AID 2316, 2010;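 active means replicate mean of 50% or more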;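 further: 0% = median vehicle wells and 100% = positive control; 100 nL library stock added to about 50 µL; numbers are from one replicate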
Shh pathway inh: Hedgehog pathway signaling inhibitors, primary screen, luminescence, Shh-LIGHT2 cells, Gli-luciferase; Shh-LIGHT2 Gli-luciferase reporter, 30 h; inhibition, % (concentration not given with the values); 2.1% of 22,000 active;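 active means replicate mean of 65% or more; inconclusive means mean lower but half the replicates past it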;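 further: pathway switched on by Shh-conditioned medium diluted 1 in 25 in low serum; 100 nL library stock added to about 40 µL; 0% = median of neutral wells and 100% = positive control level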
MITF inh: inhibitors of MITF, primary screen, MITF inhibitor project, cell-based, luminescence | TRPM1 promoter luciferase, 24 h | inhibition, % (concentration not given with the values) | 0.28% of 37,000 active | AID 2240, 2010;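 active means most replicates at 85% or more, or half of them and the mean; inconclusive means half reach 85% but not the mean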;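 further: human melanocyte line stably carrying TRPM1 promoter luciferase reporter; 0% = vehicle wells and 100% = a positive control; the first replicate is given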
YB-1 expression: inhibitors of YB-1 gene expression, primary screen, cell-based, fluorescence; AID 434959, 2010; delta delta Cp (YB-1 minus CDIP) (test concentration not listed); U2OS, qRT-PCR YB-1 vs CDIP delta delta Cp, 16 h; active compounds read high; zero = DMSO, each unit about twofold; 0.37% of 30,000 active;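 active means delta delta Cp rounded down to an integer at or above 3, about 3 SD of DMSO wells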;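 further: higher means less YB-1 transcript or more CDIP transcript relative to DMSO; stock transfer was 100 nL into about 100 µL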
Starred values were filed as active, the others as inactive; ? = inconclusive; nt = no result given; & = joins results of further samples; ! = a repeat was not active. These rows are one share of the data; rates above refer to the full screens.

Each structure is followed by: PD-1 reversal	Shh pathway inh	MITF inh	YB-1 expression
- COc1ccc(NC(=O)N(C)C[C@H]2Oc3ccc(NC(=O)NC4CCCCC4)cc3CC(=O)N([C@@H](C)CO)C[C@H]2C)cc1
 : -0.8	-10	7	-0.099
- COc1ccc(S(=O)(=O)Nc2ccc3c(c2)CC(=O)N([C@@H](C)CO)C[C@H](C)[C@H](CN(C)Cc2ccc(Cl)c(Cl)c2)O3)cc1
 : 0.7	39	10	-0.79
- C[C@H]1CN([C@@H](C)CO)C(=O)c2cccc(NC(=O)Nc3ccc4c(c3)OCO4)c2O[C@@H]1CN(C)C(=O)Nc1cccc2ccccc12
 : -3.5	-17	-16	-0.033
- C[C@@H]1CN([C@@H](C)CO)C(=O)c2cccc(NS(=O)(=O)c3cn(C)cn3)c2O[C@H]1CN(C)Cc1ccc(-c2ccccc2)cc1
 : nt	-24	-2	-0.31
- CC(C)=CCc1cc(O[C@@H]2O[C@H](CO)[C@@H](O)[C@H](O)[C@H]2O)cc(CC=C(C)C)c1C(O)C(=O)O (stereo not given in full)
 : -0.8	-13	-3	0.9
- O=C1/C(=C/c2ccco2)N=C(c2ccccc2)N1/N=C/c1ccc(F)cc1
 : -0.2	-45	-31	-0.67
- C[C@H]1CN([C@@H](C)CO)C(=O)c2cc(NC(=O)Nc3ccc4c(c3)OCO4)ccc2O[C@H]1CN(C)Cc1ccncc1
 : 1.7	nt	-3	0.018
- C[C@@H]1CN([C@H](C)CO)C(=O)Cc2cc(NS(=O)(=O)c3cccs3)ccc2O[C@@H]1CN(C)C(=O)Nc1cccc2ccccc12
 : 0.9	nt	-6	-0.84
- C[C@H]1CN([C@@H](C)CO)C(=O)c2cc(NC(=O)Nc3ccc4c(c3)OCO4)ccc2O[C@@H]1CN(C)Cc1ccc(Oc2ccccc2)cc1
 : -3.4	5	26	0.05
- O=C(CSc1nnc(-c2ccc(Br)cc2)o1)Nc1cccc(C(=O)O)c1
 : 1.9	nt	83	nt

(more compounds)
Each structure is followed by: PD-1 reversal	Shh pathway inh	MITF inh	YB-1 expression
- Cc1nc2cc(NC(=O)NCc3ccco3)ccc2n1C
 : 1.5	nt	-104	nt
- C[C@@H]1CCCCO[C@H](CN(C)Cc2ccc(Cl)c(Cl)c2)[C@@H](C)CN([C@H](C)CO)C(=O)c2cc(NC(=O)Nc3ccccc3)ccc2O1
 : -3.8	42	28	0.23
- COc1ccc(CC(=O)NC2CCCCC2)cc1OC
 : 0.4	-30	15	-0.45
- COc1ccc(S(=O)(=O)N(C)C[C@H]2Oc3ccc(NS(=O)(=O)c4ccc(C)cc4)cc3CC(=O)N([C@@H](C)CO)C[C@@H]2C)cc1
 : nt	-43	8	0.35
- C[C@@H]1CN([C@H](C)CO)C(=O)Cc2cc(NC(=O)Nc3ccc4c(c3)OCO4)ccc2O[C@@H]1CN(C)C(=O)Nc1ccc(F)cc1
 : -1.4	17	17	0.099
- C[C@@H]1CN([C@H](C)CO)C(=O)c2cc(NS(=O)(=O)c3ccc(Cl)cc3)ccc2O[C@@H]1CN(C)Cc1ccc2c(c1)OCO2
 : 0.1	nt	-5	0.32
- Nc1ncnc(Oc2cccc3cccnc23)c1[N+](=O)[O-]
 : -11	nt	6	nt
- OC(CN1CCNCC1)Cn1c2ccc(Br)cc2c2cc(Br)ccc21 (stereo not given)
 : -12&-29	78*!	-13&-7	0.35&-7.1
- Cc1noc(C)c1NC(=O)N(C)C[C@H]1Oc2ccc(NC(=O)Nc3ccccc3)cc2CC(=O)N([C@@H](C)CO)C[C@H]1C
 : 0.7	-37	-10	-0.05
- COc1ccccc1NC(=O)c1ccc(OCC(=O)O)cc1
 : 1.6	nt	3	nt

(list continues)
Each structure is followed by: PD-1 reversal	Shh pathway inh	MITF inh	YB-1 expression
- Cc1ccc(-c2cc3ccccn3c2C(=O)CSc2nnc(C)s2)cc1
 : 0.5	nt	29	nt
- C[C@H](CO)N1C[C@H](C)[C@@H](CN(C)S(=O)(=O)c2ccc(Cl)cc2)Oc2c(NC(=O)Nc3ccccc3)cccc2C1=O
 : -0.4	-88	-14	-0.32
- Cc1cc(Cl)c(S(=O)(=O)N2CCCC2)cc1OCC(N)=O
 : 0.7	nt	-6	nt
- C[C@@H]1CN([C@H](C)CO)C(=O)Cc2cc(NC(=O)C3CC3)ccc2O[C@@H]1CN(C)C(=O)Nc1ccc2c(c1)OCO2
 : nt	-14	5	0.11
- CCN(CC)C(=O)N1CCN(CCC#N)CC1
 : 0.4	nt	6	0.29
- C[C@H]1CN([C@@H](C)CO)C(=O)c2cc(NS(=O)(=O)c3ccc(Cl)cc3)ccc2O[C@H]1CN(C)C(=O)Nc1ccc(C(F)(F)F)cc1
 : -0.1	12	37	-0.16
- C[C@@H]1CCCCO[C@@H](CN(C)Cc2ccncc2)[C@@H](C)CN([C@H](C)CO)C(=O)c2cc(NS(=O)(=O)c3cccs3)ccc2O1
 : nt	?	-7	-0.28
- Cc1nnc(SCC(=O)Nc2ccc(I)cc2C)s1
 : -0.7	nt	-22	nt
- COc1ccc(NC(=O)Nc2ccc3c(c2)C(=O)N([C@H](C)CO)C[C@@H](C)[C@H](CN(C)Cc2ccc(C(=O)O)cc2)O3)cc1
 : 0.5	0	11	0.26
- C[C@@H]1CN([C@@H](C)CO)C(=O)c2cc(NC(=O)CCCCCC(=O)Nc3ccccc3N)ccc2O[C@H]1CN(C)C
 : 2.1	nt	1	0.28

The list continues:
Each structure is followed by: PD-1 reversal	Shh pathway inh	MITF inh	YB-1 expression
- CC(C)(C)OC(=O)NC1CCN(C(=O)CSCC(=O)O)CC1
 : 0.2	-8	-8	-0.35
- C[C@@H]1CCCCO[C@H](CN(C)S(=O)(=O)c2ccc(Cl)cc2)[C@@H](C)CN([C@H](C)CO)C(=O)c2cc(NC(=O)Nc3ccccc3)ccc2O1
 : -2.6	24	3	0.45
- COc1ccc(N(C(C)C(=O)Nc2ccccc2Cl)S(C)(=O)=O)cc1 (stereo not given)
 : 0.5	nt	14	nt
- O=c1cc(-c2ccccc2)oc2cccc(O)c12
 : 1.3	-31	-65	0.99
- CC(=O)[C@H]1CC[C@H]2[C@@H]3C=CC4=CC(=O)CC[C@@]4(C)[C@@H]3CC[C@]12C
 : nt	-45	-12	-0.63
- O=C(CNC(=O)c1ccccc1F)NCc1ccco1
 : -2.0	-2	-13	0.26
- C[C@@H]1CN([C@@H](C)CO)C(=O)c2cccc(NC(=O)C3CCOCC3)c2O[C@@H]1CN(C)Cc1ccncc1
 : 0.8	-4	1	0.13
- COc1ccc(OC)c(NS(=O)(=O)c2cccc3cccnc23)c1
 : 1.6	nt	-12	nt
- c1csc(-c2nnc(N3CCCCCC3)c3ccccc23)c1
 : 1.5	2	-22	-0.043
- COc1ccc(NC(=O)N(C)C[C@H]2Oc3ccc(NS(=O)(=O)c4ccc(Cl)cc4)cc3C(=O)N([C@H](C)CO)C[C@@H]2C)cc1
 : nt	3	-2	-0.39

(next part)
Each structure is followed by: PD-1 reversal	Shh pathway inh	MITF inh	YB-1 expression
- Cc1noc(C)c1S(=O)(=O)Nc1ccc2c(c1)C(=O)N([C@@H](C)CO)C[C@H](C)[C@H](CN(C)Cc1ccc(C(=O)O)cc1)O2
 : 3.3	nt	-17	0.027
- C[C@H](CO)N1C[C@H](C)[C@@H](CN(C)C(=O)NC2CCCCC2)Oc2c(NC(=O)C3CCCCC3)cccc2C1=O
 : nt	13	-5	-0.018
- Cc1ccc(S(=O)(=O)Nc2cccc3c2O[C@@H](CN(C)Cc2ccc(Cl)c(Cl)c2)[C@@H](C)CN([C@H](C)CO)C3=O)cc1
 : -5.4	113*	60	-0.2
- C[C@H]1CN([C@@H](C)CO)C(=O)c2cccc(NS(=O)(=O)c3cn(C)cn3)c2O[C@H]1CN(C)S(=O)(=O)c1cn(C)cn1
 : 3.1	-4	-5	0.018
- CC(C)NC(=O)Nc1ccc2c(c1)CC(=O)N([C@H](C)CO)C[C@H](C)[C@H](CN(C)Cc1ccccc1)O2
 : nt	nt	-9	-0.014
- CC(C)CCNC(=O)Oc1ccccc1
 : 0.7	-7	-34	-0.071
- Cc1noc(C)c1S(=O)(=O)Nc1cccc2c1O[C@@H](CN(C)S(=O)(=O)c1ccc(F)cc1)[C@@H](C)CN([C@H](C)CO)C2=O
 : -0.1	1	-5	0.23
- O=C(CC(C(=O)O)N1CCNCC1)Nc1cccc(Cl)c1 (stereo not given)
 : 2.4	nt	-7	nt
- C[C@@H]1CN([C@H](C)CO)C(=O)c2cc(NC(=O)Cn3cnnn3)ccc2O[C@H]1CN(C)Cc1ccncc1
 : -0.7	nt	-3	0.14
- C[C@H](CO)N1C[C@H](C)[C@@H](CN(C)S(C)(=O)=O)Oc2ccc(NS(=O)(=O)c3ccc(F)cc3)cc2C1=O
 : -0.3	-29	1	-0.39

Entries of single compounds, looked up by structure.
Profile of C[C@@H]1CN([C@H](C)CO)C(=O)c2cc(NC(=O)Cn3cnnn3)ccc2O[C@H]1CN(C)Cc1ccncc1 → PD-1 reversal: -0.7; Shh pathway inh: nt; MITF inh: -3; YB-1 expression: 0.14
Profile of O=C(CC(C(=O)O)N1CCNCC1)Nc1cccc(Cl)c1 (stereo not given) → PD-1 reversal: 2.4; Shh pathway inh: nt; MITF inh: -7; YB-1 expression: nt

(continued)
Each structure is followed by: PD-1 reversal	Shh pathway inh	MITF inh	YB-1 expression
- CCOC(=O)c1sc(SC)c2c1CCc1conc1-2
 : -0.5	-29	-5	-0.016
- c1ccc(OCc2nn3c(Cn4cnc5ccccc54)nnc3s2)cc1
 : -0.5	nt	16	nt
- COC(=O)c1cc(O)cc(O)c1C(=O)c1c(O)c(Cl)c(C)c(Cl)c1OC
 : -3.3	-41	-14	1.2
- C[C@@H]1CCCCO[C@H](CN(C)C(=O)Nc2ccc3c(c2)OCO3)[C@@H](C)CN([C@H](C)CO)C(=O)c2cc(NC(=O)Nc3ccc4c(c3)OCO4)ccc2O1
 : nt	nt	-4	-0.049
- C[C@H](CO)N1C[C@H](C)[C@@H](CN(C)CC2CCCCC2)Oc2c(NC(=O)c3cnccn3)cccc2C1=O
 : 0.5	-53	0	-0.098
- CS(=O)(=O)Nc1ccc(S(=O)(=O)NCC2CCCO2)cc1 (stereo not given)
 : 0.3	nt	8	nt
- Cc1noc(C)c1S(=O)(=O)Nc1ccc2c(c1)CC(=O)N([C@@H](C)CO)C[C@@H](C)[C@@H](CN(C)C)O2
 : nt	10	0	0.16
- C[C@H]1CN([C@@H](C)CO)C(=O)c2cccc(NS(C)(=O)=O)c2O[C@H]1CN(C)S(=O)(=O)c1ccc(Cl)cc1
 : 0.7	-15	-2	0.3
- Cc1ccc([N+](=O)[O-])cc1NC(=O)CN(C)S(=O)(=O)c1cc(Cl)ccc1Cl
 : 0.3	nt	-7	nt
- COc1ccc(OCC(=O)Nc2sc3c(c2C#N)CCC3)cc1
 : -0.3	nt	-80	nt

Next part
Each structure is followed by: PD-1 reversal	Shh pathway inh	MITF inh	YB-1 expression
- O=S(=O)(c1ccc(Cl)cc1)c1nc(-c2ccc(F)cc2)oc1NCc1cccnc1
 : 0.1	nt	-1	nt
- C[C@@H]1CN([C@H](C)CO)C(=O)Cc2cc(NS(=O)(=O)c3cccs3)ccc2O[C@@H]1CN(C)Cc1ccc(C(=O)O)cc1
 : 1.1	-5	-1	-0.041
- CC(=O)Oc1cc2c(C(=O)N3CCCC3)c(C)oc2c2ccccc12
 : 0.3	-17	-15	-0.057
- O=C(O)C(Cc1ccsc1)c1ccccc1 (stereo not given)
 : 1.0	nt	-6	-0.066
- C[C@H](CO)N1C[C@H](C)[C@@H](CN(C)S(C)(=O)=O)Oc2ccc(NC(=O)Nc3ccccc3)cc2C1=O
 : 1.2	36	-5	0.039
- C[C@@H]1CN([C@@H](C)CO)C(=O)c2cccc(NC(=O)Nc3ccc(C(F)(F)F)cc3)c2O[C@@H]1CN(C)Cc1ccc2c(c1)OCO2
 : -2.3	8	-2	0.34
- O=C(CSc1nnc(-c2cccs2)n1-c1ccccc1)N1CCCc2ccccc21
 : -1.2	nt	22	nt
- CCOc1ccc(S(=O)(=O)NCc2ccccc2)cc1-c1nc2c(C(C)(C)C)nn(C)c2c(=O)[nH]1
 : -1.8	79*	76	-0.45
- Cc1noc(C)c1S(=O)(=O)Nc1ccc2c(c1)CC(=O)N([C@@H](C)CO)C[C@H](C)[C@@H](CN(C)CC1CC1)O2
 : 0.0	23	1	-0.23
- C[C@H]1CN([C@@H](C)CO)C(=O)Cc2cc(NS(C)(=O)=O)ccc2O[C@@H]1CN(C)CC1CC1
 : 2.6	71*	-12	-0.025
- CNC[C@H]1Oc2ccc(NC(=O)Nc3ccccc3)cc2C(=O)N([C@@H](C)CO)C[C@H]1C
 : 1.2	-12	3	0.13
- COc1ccc(NC(=O)Nc2cccc3c2O[C@@H](CN(C)S(=O)(=O)c2ccc(OC)cc2)[C@H](C)CN([C@H](C)CO)C3=O)cc1
 : -2.4	-14	0	0.079
- C[C@@H]1CN([C@@H](C)CO)C(=O)c2cc(NC(=O)CCC(F)(F)F)ccc2O[C@@H]1CN(C)Cc1ccc(Oc2ccccc2)cc1
 : -1.0	35	0	0.00081
